From PubChem
CDC25B-CDK2 inh: human CDC25B-CDK2/CyclinA binding inhibition; P30305+P24941; HTRF CDC25B-CDK2/CyclinA binding, anti-His/anti-Flag; active compounds read high; z-score (no concentration beside the values); 94,000 compounds, 0.72% hits; AID 1259370;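 also: score is relative to mean and SD of negative controls; strong numbers were not always called active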
TAR Tat displ: HIV-1 TAR-Tat binding disruption. HIV-1 TAR RNA, Tat peptide displacement FRET; active compounds read high. AID 1259389. 100,000 compounds, 0.6% hits. z-score (test concentration not listed);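 also: score is relative to mean and SD of negative controls; some compounds called inactive have numbers as strong as hits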
The depositor's hits bear a star; · = no result given.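 The calls were made as follows: active = z-score from 3 up in half or more of its runs; inactive = the rest.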

SMILES	CDC25B-CDK2 inh	TAR Tat displ
Fc1ccc(-c2nnc3sc(Cc4ccccc4)nn23)cc1	-0.93	2
O=C(Oc1ccc(F)cc1)/C(=C\c1cccs1)c1ccsc1	-1.2	·
O=C(NCCCN1CCN(C2CCCCC2)CC1)c1[nH]nc2c1CCc1ccccc1-2	·	-0.15
O=c1cc(-c2ccccc2)nc(N2CCN(Cc3ccccc3)CC2)[nH]1	-0.02	2.7
COC(=O)C1C(=O)C2=C(CC1C)NC(C)=C(C(=O)OC(C)C)C2c1ccc(N(C)C)cc1 (configuration not stated)	-1.5	1.8
COc1ccccc1CN1CC(O)=C(c2nc3ccccc3[nH]2)C1=N	-1.1	-1.4
Cc1cc(NCc2ccc(F)cc2)n2nc(Cc3cccc(F)c3)nc2n1	·	0.95
COc1ccccc1NC(=O)CSc1nc(-c2cccs2)nc2cc(=O)[nH]n12	·	0.92
COc1cccc(-c2noc(-c3cccc(OC)c3)n2)c1	-2.8	0.77
Cn1cc(S(=O)(=O)N2CCCC2)cc1C(=O)Nc1ccc(Cl)cc1	·	2.2
Cn1nc(C(C)(C)C)cc1C(=O)NCc1ccc2c(c1)OCO2	-0.33	·
CC1Sc2ccc(S(=O)(=O)CCC(=O)Nc3ccc(F)cc3F)cc2NC1=O (configuration not stated)	·	2.2
C=CCn1c(SCC(=O)NCc2cccnc2)nc2sc3c(c2c1=O)CCCC3	-2.9	·
Cc1ccc(NC(=O)C2C3C=CC4(O3)C2C(=O)N(C2CCCCC2)C4C(=O)NC2CCCCC2)cc1 (configuration not stated)	-1.2	0.09
CCCc1cc(=O)n2nc(N(C)CC(=O)Nc3cccc(SC)c3)sc2n1	-1.5	0.93
Cc1cc(C)n(-c2nnc(Nc3ccc(N(C)C)cc3)c3ccccc23)n1	·	1.1
CCCCCC1C(=O)CCC1CC(=O)O (configuration not stated)	·	1.4
CC1(C)Cc2c(sc3nnn(CC(=O)Nc4ccccc4)c(=O)c23)CO1	0.41	0.98
O=C(Nc1cccc(Cl)c1)c1cccc(N2C(=O)C3C4C=CC(C4)C3C2=O)c1 (configuration not stated)	-0.82	·
O=c1[nH]c2ccc(S(=O)(=O)NC3CCCCC3)cc2[nH]1	0.15	-0.22
CC(C)NC(=O)c1cc(C(C)C)on1	-1.7	-2.2
COC(=O)c1ccc(CSc2nc3ccncc3n2Cc2ccc(OC)cc2)cc1	0.76	-0.14
Cc1ccc(-n2cc3c(c2-c2ccc(Br)cc2)c(=O)n(C)c(=O)n3C)cc1N	1.8	1
CC1CCC(NS(=O)(=O)c2ccc(-c3cnc(C4CC4)o3)cc2)CC1 (configuration not stated)	·	1.8
Cc1c(N2CCN(C(=O)c3cc(-c4cccs4)[nH]n3)CC2)c(=O)n(C)c(=O)n1C	·	-0.13
O=C(CSc1nccn1C1CCCC1)Nc1ccccc1	·	0.01
COc1cccc(OC)c1C(=O)NCC12CC3CC(C1)CC(CNC(=O)c1c(OC)cccc1OC)(C3)C2	-2	·
O=C(CSc1nc(=O)n(CCN2CCOCC2)c2c1CCC2)Nc1ccc(Cl)cc1	·	1
CCOC(=O)c1cc(-c2ccncc2)nc2ccccc12	-0.54	0.05
Cn1c(=O)c2c(nc(NCc3ccc4c(c3)OCO4)n2Cc2ccccc2Br)n(C)c1=O	2	-0.64
O=C(CCc1nc2sc3c(c2c(=O)[nH]1)CCCCC3)N1CCN(c2ccc(F)cc2)CC1	·	-0.48
COc1ccc2c(c1)CCc1c-2n[nH]c1C(=O)NCCN1CCCC1	·	1.3
O=S1(=O)C[C@H](NCc2ccccn2)[C@@H](S(=O)(=O)c2cccs2)C1	0.56	-1
Cc1cc(Br)cc2c1N(CC(C)C)C(=O)C2=O	-0.79	1.4
S=c1[nH]ccn2nc(-c3cccc4ccccc34)cc12	0.91	-2.1
Cc1ccc2cccc(NS(=O)(=O)c3ccccc3)c2n1	-0.96	1.8
CN(C)CC(O)CN1C(=O)N(CN2C(=O)N(CC(O)CN(C)C)C(=O)C2(C)C)C(C)(C)C1=O (configuration not stated)	-4.1	·
O=C(NCCN1CCCc2ccccc21)Nc1ccc(F)cc1F	0.8	-0.14
CC(C)Cc1nc(NCc2ccccc2)c(C#N)c2c1COC(C)(C)C2	-3.4	-0.79
Cc1nc2c(c(C)c1CCC(=O)NCc1cccs1)c(=O)n(C)c(=O)n2C	-0.83	-0.8
CCCCN(C)S(=O)(=O)c1cc2c(cc1Cl)NC(=O)CO2	·	-3.6
CN(C)c1nc2c(c(=O)n(C)c(=O)n2C)n1Cc1ccc(F)cc1	-2.2	·
Cc1ccccc1Cn1c(C2CC(=O)N(Cc3ccccc3)C2)nc2ccccc21 (configuration not stated)	-0.62	3.8
NCCC(=O)N[C@@H](Cc1cnc[nH]1)C(=O)O	·	2.9
CC1(C(=O)NN)CC1C(=O)NN (configuration not stated)	-0.52	·
CCCCNc1ncc2c(n1)CC(c1ccc(C(C)(C)C)cc1)CC2=O (configuration not stated)	-1.5	2.4
COC(=O)c1cc(S(=O)(=O)N2CCCC2C(=O)Nc2nc(C)cs2)cn1C (configuration not stated)	·	-0.36
O=C(O)C1c2ccccc2C(=O)N(Cc2cccnc2)C1c1ccncc1 (configuration not stated)	·	1.1
C=C(C)CSc1ncnc2c1oc1nc3c(cc12)COC(C)(C)C3	·	1.1
O=C(O)Cc1ccc([N+](=O)[O-])cc1	-3.6	·
CCSCCOC(=O)C1=C(C)NC2=C(C(=O)CC(C)(C)C2)C1c1ccc(C(=O)OC)cc1 (configuration not stated)	0.11	0.95
O=C1CCSc2ccc(S(=O)(=O)NC3CCCCC3)cc2N1	·	1.1
COCCCNC(=O)c1cc2cc3ccc(C)cc3nc2o1	-2.4	·
Cc1cc(S(=O)(=O)NC2CCCCNC2=O)c(C)s1 (configuration not stated)	-1.1	·
CCN(C(=O)c1sc2nc3n(c(=O)c2c1C)CCCC3)c1ccccc1	·	0.55
CC1CCC(NC(=O)C2CCCN(c3nnc(-n4cccc4)s3)C2)CC1 (configuration not stated)	-0.68	1
Cc1ccc(-n2nnnc2-c2cnc(N)nc2-c2ccccc2)cc1	-0.57	·
Cc1ccc(S(=O)(=O)NC(C)C(c2cccs2)N2CCN(C)CC2)cc1 (configuration not stated)	-0.81	·
Cc1nc(C)c(-c2ccnc(/N=C/NO)n2)s1	-0.16	·
O=C(CSc1nnc2ccccn12)c1ccc(Cl)cc1	-1.9	0.08

Entries listed so far with bromine, in the order listed:
SMILES	CDC25B-CDK2 inh	TAR Tat displ
Cc1ccc(-n2cc3c(c2-c2ccc(Br)cc2)c(=O)n(C)c(=O)n3C)cc1N	1.8	1
Cn1c(=O)c2c(nc(NCc3ccc4c(c3)OCO4)n2Cc2ccccc2Br)n(C)c1=O	2	-0.64
Cc1cc(Br)cc2c1N(CC(C)C)C(=O)C2=O	-0.79	1.4

(next part)
SMILES	CDC25B-CDK2 inh	TAR Tat displ
O=C(Nc1ccc2c(c1)C(=O)c1ccccc1C2=O)c1ccc(-c2ccc([N+](=O)[O-])cc2)o1	1.3	·
O=C(CCC(=O)N1CCOc2ccccc21)NCCCN1CCCC1=O	-2.1	-0.97
CCOc1ccc(NS(=O)(=O)c2ccc(-n3cccn3)cc2)cc1	·	0.94
CC1CN(C(=O)CCC(=O)NCCN2CCOCC2)c2ccccc2S1 (configuration not stated)	·	2.9
Cc1csc2nc(COC(=O)COc3ccccc3)cc(=O)n12	·	0.82
CC1(C)Cc2nc3sc4c(=O)n(CC(=O)Nc5ccc(Cl)cc5)cnc4c3cc2CO1	·	0.35
CCN(CC)c1nc(Nc2ccc(F)cc2)c2cnn(C)c2n1	·	-0.04
CCn1c(Cn2nc(C)cc2C)nc2cc(NC(=O)c3ccco3)ccc21	2.8	1.6
Cc1cccc(Nc2nnc(-c3ccc(C)c(S(N)(=O)=O)c3)c3ccccc23)c1	-1.6	2.3
CCN(CC)C(=O)Cn1cc(SCC(=O)Nc2cc(C)on2)c2ccccc21	·	-3.2
CCOc1ccc(NS(=O)(=O)c2ccc(N3CCCC3=O)cc2)cc1	·	-0.39
CCC(C)C1NC(=S)N(C2CCCCC2)C1=O (configuration not stated)	-1.5	·
CC(C)C1C(c2ccccc2)NC(c2ccccc2)CC1(C)O (configuration not stated)	-0.62	3
Cc1nnc2c(NCc3ccncc3)nc3ccccc3n12	-1.8	·
CC(C)N(Cc1ccccc1)c1ncnc2c1cnn2C	·	0.36
CCCCCn1c(-c2cccs2)nc2ccccc21	-1.1	0.81
COc1ccc(NC(=O)COc2cc(CSc3nnnn3C)ncc2OC)cc1	·	1.7
O=C(CSc1nc2c(c(=O)n1Cc1ccccc1)SCC2)N1CCCc2ccccc21	·	1.7
Cc1cc(-c2ccccc2)cnn1	-1.1	·
CCC1CN(C(=O)N2CCC(C(=O)N3CCN(CC)CC3)CC2)c2ccccc2O1 (configuration not stated)	·	1.3
COc1ccc(OCC2CN=C(c3ccccc3CO)O2)cc1 (configuration not stated)	-1.6	·
CCC(C)N1C(=O)c2ccc(-c3ccco3)n2CC1(C)C(=O)NC1CCC(C)CC1 (configuration not stated)	·	-1.1
Cc1ccc(-c2nc3nc(C)cc(NC(C)c4ccccc4)n3n2)cc1 (configuration not stated)	·	0.25
O=C(CCN1C(=O)/C(=C\c2cccs2)SC1=S)Nc1ccc(O)c(C(=O)O)c1	-3.6	·
CCOc1ccc(/C(O)=C2\C(=O)C(=O)N(c3nccs3)C2c2ccc(F)cc2)cc1 (configuration not stated)	-0.92	-0.92
Cc1cc(=O)nc2c3ccccc3n(CC(=O)NCCC(C)C)n12	0.4	-0.33
Cc1cccc(N2CC(O)=C(c3nc4ccc(C)cc4[nH]3)C2=N)c1	-0.82	0.98
CCN1CCN(C(=O)CCC(=O)N2CC3CCCN3c3ccccc32)CC1 (configuration not stated)	·	-0.12
O=C(N/N=C/c1cccs1)C(=O)Nc1ccc(Cl)c(Cl)c1	-1.5	·
CCOC(=O)C1CCN(c2c(NCC3CCCO3)c(=O)c2=O)CC1 (configuration not stated)	-0.91	·

The list goes on:
Each structure is followed by: CDC25B-CDK2 inh, TAR Tat displ
Cc1cn2c(=O)cc(CSCC(=O)Nc3ccccc3)nc2s1
 : ·, 1.1
NC(=O)c1c(NC(=O)COc2ccccc2)sc2c1CCCC2
 : 0.16, 0.17
O=C(Nc1ccc2oc(-c3cc(Br)ccc3Cl)nc2c1)c1ccc([N+](=O)[O-])o1
 : -0.2, 7.4
CCOc1ccc(-n2c(=O)[nH]c3c(C(N)=O)nc(-c4cc(OC)ccc4OC)nc32)cc1
 : ·, 0.96
O=C1CCCC(O)=C1C1C2=C(CCCC2=O)Oc2ccccc21 (configuration not stated)
 : -1.4, ·
Cc1ccc(Nc2ncnc3c2nc2n3CCCCC2)c(Cl)c1
 : ·, 1.8
O=C(C1CCN(S(=O)(=O)c2cccc3nsnc23)CC1)N1CCN(c2ccccc2F)CC1
 : ·, 1
Cc1cc(C)c2c(c1)C(=O)C(c1ccc3cc(O)ccc3n1)C2=O (configuration not stated)
 : 2.7, 2.8
CCOC(=O)[C@H](CCc1ccccc1)N[C@@H](C)C(=O)N1CCC[C@H]1C(=O)O
 : ·, 1.1
O=C(CSc1nc2ccccc2nc1N1CCOCC1)N1CCN(c2ccccc2)CC1
 : -1.3, -1.6
O=C(CSc1ncnc2ccccc12)Nc1cccc2nsnc12
 : 1.9, 0.95
CC(=O)Nc1c(O)n(C)c2ccccc12
 : 1.3, 0.63
CCSC1=C(C#N)C(c2cc(Br)c(O)c(OC)c2)CC(=O)N1 (configuration not stated)
 : -0.63, 0.8
COc1ccc(NS(=O)(=O)c2ccc3c(c2)C(C)(C)C(=O)N3C)cc1OC
 : ·, 0.74
Cc1noc(C)c1S(=O)(=O)N1CCCC1c1ccccc1Cl (configuration not stated)
 : -1.5, -0.19
O=c1cc(O)c2sc3nc4c(c(C(F)(F)F)c3c2[nH]1)CCCCC4
 : -0.69, 0.56
CCOC(=O)N1CCN(C(=O)c2cc(S(=O)(=O)N3CCCC3)cn2C)CC1
 : ·, 1.8
O=C(NCc1cccs1)NC(=O)c1csc([N+](=O)[O-])c1
 : 11, ·
Cc1ccc(NS(=O)(=O)c2ccc(Br)cc2C)c(C)c1
 : -0.99, 0.66
O=C(c1c[nH]c2ccc(F)cc2c1=O)N1CCCC1
 : -1.6, 0.8
CCn1c(SCC(=O)c2c[nH]c3ccccc23)nnc1-c1ccc2c(c1)OCCCO2
 : ·, 1.3
Cc1ccc(OCC(O)Cn2c(C)nc3ccccc32)c(C)c1 (configuration not stated)
 : -0.07, 0.98
CCc1nnc(NC(=O)CSc2nnc(NC(C)=O)s2)s1
 : -0.38, ·
CCN1C(=O)CCC1(C)C(=O)NC1CCCC1 (configuration not stated)
 : 1.5, -0.99
CC(=O)Oc1ccc2ccccc2c1C1=NN(C(C)=O)C(c2cccc(F)c2)O1 (configuration not stated)
 : ·, 0.91
O=C(NCc1cccs1)C1=NS(=O)(=O)c2ccccc2N1
 : ·, 0.09
Cc1ccccc1C1C=C(C(=O)O)Nc2nnnn21 (configuration not stated)
 : ·, 0.84
O=C(CN1C(=O)c2ccccc2S1(=O)=O)NCc1cccs1
 : 0.79, ·
Cc1ccc(NS(=O)(=O)c2ccc(N)c(S(N)(=O)=O)c2)cc1
 : -1.1, 0.9

Four compounds from above, arranged by count of non-hydrogen atoms, lowest first:
Each structure is followed by: CDC25B-CDK2 inh, TAR Tat displ
COCCCNC(=O)c1cc2cc3ccc(C)cc3nc2o1
 : -2.4, ·
COc1ccc(NC(=O)COc2cc(CSc3nnnn3C)ncc2OC)cc1
 : ·, 1.7
COC(=O)C1C(=O)C2=C(CC1C)NC(C)=C(C(=O)OC(C)C)C2c1ccc(N(C)C)cc1 (configuration not stated)
 : -1.5, 1.8
Cc1ccc(NC(=O)C2C3C=CC4(O3)C2C(=O)N(C2CCCCC2)C4C(=O)NC2CCCCC2)cc1 (configuration not stated)
 : -1.2, 0.09
